Calb FLC = affects C. albicans growth with fluconazole; C. albicans CaCi-2 (fluconazole-resistant clinical isolate) + fluconazole, Alamar Blue growth, 48 h; growth inhibition, % (no concentration beside the values); actives 0.57% (n = 300,000); AID 1979;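 active = most replicates above 75%; inconclusive = exactly half above 75%; inactive = most below 75%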;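 note: all wells also contain fluconazole at 8 µg/ml as a sub-toxic cotreatment; 0% = median of DMSO wells and 100% = median of geldanamycin control wells; wells of about 8 µL received 7.5 nL stock; the first replicate is given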
A1 inh = inhibitors of the anti-apoptotic protein A1, read as caspase activation; MEF A1-2A-BIM cells, Caspase-Glo 3/7 luminescence, 3 h; percent of clofoctol response, vehicle zero; actives 0.066% (n = 330,000); caspase activation, % (no concentration beside the values); AID 2462;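 active = over half of replicate activation scores above 10%, or exactly half above 10 with the replicate mean above 10; inconclusive = replicate mean below 10 yet half the replicates above 10; inactive = over half of replicates below 10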;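 note: wells of about 30 µL received 50 nL stock; many hits fall short of the cut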
AF4-AF9 inh = MLL-AF4/AF9 protein interaction inhibition; AlphaScreen, biotin-AF4 peptide binding to FLAG-AF9; inhibition, % at 10 µM; AID 651704; actives 0.47% (n = 350,000);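 active = every replicate reaching a set inhibition limit, whatever the replicate mean, cut at about 25% in these data; inconclusive = mean inhibition reaches that limit but some replicates miss it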;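 note: 0% = plate neutral control median and 100% = total signal loss; the record names both 10 and 1 µM as test concentration; the first replicate is given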
Target sequence (P42568 whole entry, looked up): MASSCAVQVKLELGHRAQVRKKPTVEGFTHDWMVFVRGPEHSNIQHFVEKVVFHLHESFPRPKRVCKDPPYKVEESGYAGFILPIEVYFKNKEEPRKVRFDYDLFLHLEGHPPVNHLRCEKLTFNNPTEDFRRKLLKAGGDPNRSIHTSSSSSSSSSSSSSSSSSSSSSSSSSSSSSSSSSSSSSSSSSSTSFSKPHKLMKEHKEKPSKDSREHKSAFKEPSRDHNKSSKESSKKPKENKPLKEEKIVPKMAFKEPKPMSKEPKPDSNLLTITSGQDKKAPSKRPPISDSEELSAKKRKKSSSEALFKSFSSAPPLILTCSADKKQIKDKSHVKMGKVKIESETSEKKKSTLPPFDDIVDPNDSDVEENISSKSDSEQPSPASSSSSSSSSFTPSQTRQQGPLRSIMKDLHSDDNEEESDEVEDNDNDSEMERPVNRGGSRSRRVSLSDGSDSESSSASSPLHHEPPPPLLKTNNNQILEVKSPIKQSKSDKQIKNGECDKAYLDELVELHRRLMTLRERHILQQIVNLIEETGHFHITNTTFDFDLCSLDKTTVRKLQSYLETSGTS
Ecoli rRNA inh = inhibits bacterial ribosomal RNA function over humanized ribosomes; E. coli WT GFP vs humanized-ribosome RFP mutants, fluorescence, 24 h; stronger effect = lower value; DMSO median 0, no signal -100; GFP signal change (wild-type ribosome), % (concentration not given with the values); actives 1.6% (n = 350,000); AID 720706;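 active = significant combined selectivity score with lowered wild-type GFP, culture density cut under 30%, mutant RFP and density less affected; inactive = any of these conditions unmet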; note: one replicate is shown; some compounds called inactive have numbers as strong as hits
Vif TR-FRET = inhibitors of Vif binding to APOBEC3G peptide, primary screen, biochemical, TR-FRET, GST-Vif 1-94, biotin-A3G peptide, dose response retest (AID 1117319); TR-FRET GST-Vif / biotin-A3G peptide binding; higher % means a stronger effect; test concentration not given here; strong numbers were not always called active; inhibition, %, or IC50 in µM where a hit was titrated; actives 0.57% (n = 260,000);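 active = above the screen mean plus three standard deviations and confirmed in dose response; inconclusive = results disagree or hit not tested in dose response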;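 note: Vif residues 1-94 fused to GST binding biotinylated APOBEC3G peptide 110-148; 0% = full assay without inhibitor and 100% = GST in place of GST-Vif; retest series ran down from 100 µM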
T cruzi repl = T. cruzi replication inhibition | actives 1.4% (n = 300,000) | T. cruzi beta-gal in NIH3T3, luminescence, 90 h | inhibition, % (test concentration not listed);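 active = mean inhibition across valid replicates above about 55%, limit read from the data; inconclusive = mean below that limit but half or more replicates reach it; inactive = mean below it, under half of replicates reach it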;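 note: signal also drops with host cell toxicity which is not excluded here; 0% = plate median of DMSO wells and 100% = zero luminescence signal; higher percent means less beta-gal luminescence so fewer parasites; stock transfer was 50 nL into about 50 µL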
RanGTP-Imp inh = inhibitors of RanGTP-importin-beta interaction, primary screen, biochemical, FRET, CFP-Ran, YFP-importin-beta, homogeneous; cell-free CFP-Ran/YFP-importin-beta FRET ratio; inhibition, % (no concentration beside the values); actives 1.1% (n = 300,000); AID 2216;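 active = most replicates above 15%; inconclusive = exactly half above 15%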;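 note: 0% = DMSO wells and 100% = Ran loaded with GDP instead of GTP; wells of about 40 µL received 100 nL stock; the first replicate is given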
Beta cell apopt = beta cell apoptosis inhibition | protection from apoptosis, % (test concentration not listed) | actives 0.8% (n = 300,000) | AID 435005 | INS-1E cytokine-induced death, ATP luminescence, 48 h; percent of positive-control rescue, neutral wells zero;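 active = all replicates at 75% or more, or half of them and the mean; inconclusive = half reach 75% but not the mean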;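 note: 0% = cytokine-treated negative control wells and 100% = positive control rescue; higher means more ATP so stronger rescue from cytokine killing; wells of about 40 µL received 100 nL stock; the first replicate is given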
Ecoli rRNA inh OD600 = further read-out of Ecoli rRNA inh, marked with its call; OD600 change, %; measured here: OD600 growth;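 optical density of the mix in the first replicate; 0 = DMSO median and -100 = no signal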
Ecoli rRNA inh RFP = second read-out of Ecoli rRNA inh, no call of its own (marks repeat the call); RFP signal change, %; measured here: RFP humanized mutant strains;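 first replicate; 0 = DMSO median and -100 = no signal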
Numbers without * were called inactive; u = inconclusive; x = no result given; & = joins results of further samples. Only part of the results is shown; rates above refer to the full screens.

Every second line gives: Calb FLC, A1 inh, AF4-AF9 inh, Ecoli rRNA inh, Ecoli rRNA inh OD600, Ecoli rRNA inh RFP, Vif TR-FRET, T cruzi repl, RanGTP-Imp inh, Beta cell apopt
1	CC(C)Cc1nnc(NC(=O)c2cc3c(s2)CCC3)s1
 : -6.4, -0.2, -18.8, x, x, x, u, -3.0, 1.5, 0.5
2	CCn1c(SCC(=O)Nc2ccc3c(c2)OCCO3)nnc1C(C)C
 : -4.9, -0.5, 1.8, -3.3, -4.2, -0.2, 5.5%, -2.0, -1.1, 0.9
3	CCOC(=O)c1oc2ccc(CNC(C)(C)C)c(Cl)c2c1C
 : 7.8, -0.2, 0.4, 5.5, 6.5, 1.6, -2.8%, -0.1, 0.9, 0.2
4	CCOC(=O)c1oc2ccc(/C=N/O)c(Cl)c2c1C
 : 18.1, -3.6, -1.3, -8.8, -3.7, -2.3, -0.5%, -13.4, -0.3, -3.0
5	Cc1nn(Cc2ccc(Cl)cc2)c(C)c1NC(=O)CSc1nc2c(c(C(F)(F)F)n1)CCc1ccccc1-2
 : 24.8, 0.1, x, x, x, x, -8.8%&-3.6%, 60.5*, -1.2, 34.9
6	N/C(Cc1cccc2ccccc12)=N\O
 : 1.6, 0.3, x, 21.2, 4.8, 7.6, 20.2%, 3.2, 3.5, -4.2
7	CCOC(=O)c1sc(C)c2c(=O)n(CC)nnc12
 : 7.6, -0.7, x, x, x, x, 2.5%, -11.5, -0.3, 3.3
8	Cc1ccc(S(=O)(=O)Nc2cc(-c3nn(C)c(=O)c4ccccc34)ccc2N2CCOCC2)cc1
 : 31.4, -0.3, x, 1.1, -1.3, 0.6, 5.7%, -1.8, 5.3, 6.9
9	CC(=C\C(=O)O)/C(=C/c1ccco1)C(=O)O
 : -1.7, -0.1, -7.6, 4.0, 5.2, 7.0, 29.9%, -11.9, -2.2, -5.8
10	CS(=O)(=O)Nc1ccc(S(=O)(=O)N2CCCCCC2)cc1
 : -3.6, 0.2, -1.8, 2.8, 5.1, -1.9, -1.5%, -1.3, -1.8, -2.8
11	COc1cc2nc(CN3CCN(S(=O)(=O)c4ccc(C)c(C)c4)CC3)[nH]c(=O)c2cc1OC
 : 5.8, 1.9, -3.1, 28.6, 27.6, -0.2, -2.3%, -13.5, -0.6, -0.6
12	C=CCn1c(SCc2nc3cc(C(F)(F)F)ccc3c(=O)[nH]2)nc2sc(CC)cc2c1=O
 : 3.1, 1.0, x, x, x, x, -7.2%, 10.9, 1.7, -2.6
13	CCNC(=O)/C=C1\NC(C)(C)Cc2c1ccc1ccccc21
 : 11.3, 0.4, 8.9, -12.5, 1.6, -1.4, 1.2%, 10.1, -1.3, -7.2
14	Cc1ccnc(Nc2nc(-c3sc(C)nc3C)cs2)c1
 : -5.4, 0.8, 5.7, -34.5*, -26.5*, 11.9*, x, 19.6, 1.8, -4.9
15	CN(Cc1cccs1)C(=O)c1ccc(S(=O)(=O)NCc2ccco2)cc1
 : -2.3, 0.6, -7.0, 2.0, -7.0, 1.3, x, -6.5, 1.5, 5.6
16	CNC(=S)N1CCN=C1Nc1nc(C)cc(C)n1
 : 12.2, -0.2, -1.5, 5.0, -4.7, 0.7, 9.8%, 4.3, u, -5.2
17	N#CCC(=O)N/N=C/c1cc([N+](=O)[O-])ccc1N1CCOCC1
 : -1.1, -0.6, 0.0, 11.3, 16.4, 1.9, 11.9%, 3.6, 4.4, x
18	CN(C)/N=C1\CCS(=O)(=O)c2sccc21
 : 22.0, 1.2, 1.5, 13.9, 19.6, -0.8, -4.9%, -35.8, 3.4, -3.2
19	C/C=C/c1ccc(OCCCCN2CC(C)CC(C)C2)c(OC)c1 (centres undefined)
 : -7.2, -0.1, -1.7, 16.2, 5.3, 2.4, 7.3%, 54.7*, 2.7, -7.1
20	CCOc1ccc(-c2nc(N)ncc2Oc2ccccc2Br)c(O)c1
 : 1.5, -0.3, x, x, x, x, -38.1%, 3.6, 2.1, -6.8
21	Cc1cccc(-n2c(C)cc(C(=S)N3CCOCC3)c2C)c1C
 : -2.0, -0.6, 8.1, 15.8, 10.2, 2.0, x, -24.4, -0.4, 0.3
22	CC1CCN(C(=O)/C(=C\c2ccccc2F)NC(=O)c2ccccc2)CC1
 : -6.1, -0.4, -0.8, -2.3, -7.4, 1.4, x, -2.9, 0.4, -5.0
23	Cc1ccc(Cl)c(OCC(=O)OCC(=O)NC2CCCc3ccccc32)c1 (centres undefined)
 : 21.3, -0.3, -0.7, 4.6, 10.1, 2.0, 16.6%, -10.5, 1.7, -4.6
24	COc1cc(CNCCc2c[nH]c3ccccc23)ccc1OCc1ccc(F)cc1
 : u, -0.3, x, x, x, x, 12.4%, 53.3, -1.3, 31.4
25	CCOc1ccc(N2C(=O)c3cccnc3C2Nc2ccc(C)c(C)c2)cc1 (centres undefined)
 : 13.3, 1.4, x, x, x, x, -2.7%, 5.2, -0.7, -0.4
26	COC(=O)c1ccc(S(=O)(=O)N2Cc3ccccc3C2)cc1
 : -1.1, 0.5, 1.4, 12.1, 7.6, 0.7, x, 10.2, -4.2, -2.8
27	CC(OC(=O)Cc1c(F)cccc1Cl)C(=O)NCCC1=CCCCC1 (centres undefined)
 : -3.0, -0.3, x, x, x, x, x, 0.9, 3.0, -7.9
28	O=C(NCCc1cccc(F)c1)/C(=C/c1cccnc1)NC(=O)c1ccccc1
 : 4.5, 1.3, -1.7, 1.7, 3.4, 0.7, -4.6%, 4.1, u, 0.3
29	O=C(COC(=O)CSc1nnc(-c2ccc(Cl)cc2)o1)Nc1cc(Cl)ccc1Cl
 : 2.4, -0.5, -23.5, 1.0, -1.6, 0.4, -1.9%, -6.9, 2.7, -0.1
30	Cc1c(NCc2nc3ccccc3[nH]2)c(=O)n(-c2ccccc2)n1C
 : -2.0, -3.0, -45.1, 11.3, 6.4, -1.4, 17.2%, -9.2, -2.0, 5.0
31	COc1cc(/C=N/Nc2ncc(C(F)(F)F)cc2Cl)cc(OC)c1O
 : -8.9, 0.4, x, x, x, x, 19.4%, -8.2, -0.9, -1.7
32	O=C(Nc1ccon1)Nc1cccc(Cl)c1Cl
 : -5.1, -0.5, 0.0, -12.3, -27.8, -3.3, -0.9%, -5.4, 0.8, 3.7
33	CN1C(=O)CC(N2CCN(CC(N)=O)CC2)C1=O (centres undefined)
 : -8.0, -0.4, x, x, x, x, 8.3%, -2.1, -1.2, 0.5
34	O=C(/C=C/c1c(F)cccc1Cl)c1ccc(F)cc1
 : -18.3, 0.2, x, x, x, x, -4.3%, -6.5, -4.7, -6.1
35	COc1ccc(-c2cnn3cc(-c4cccc(Cl)c4)cnc23)cc1
 : 2.1, 0.3, -2.3, 5.6, 4.3, -2.2, -1.2%, 4.6, 0.1, -4.3
36	O=C(COC(=O)c1ccc([N+](=O)[O-])o1)NCc1ccccc1
 : x, -0.5, 3.2, 0.1, 6.9, -0.2, 13.1%, x, x, -6.9
37	S=C(NCc1ccco1)Nc1ccc(Br)cc1Cl
 : -7.1, 0.3, 3.1, -37.1*, -25.6*, -7.8*, -4.6%, 30.5, -1.8, -6.6
38	O=C(Nc1ccccc1Cl)c1cccc(NC(=O)c2cccs2)c1
 : 38.7, -0.1, -2.8, -5.4, 15.2, -1.5, x, 0.2, 2.4, -3.3
39	Cc1ccc(S(=O)(=O)N2[C@@H](c3ccc(Cl)cc3)C(C(=O)O)=CC[C@H]2c2ccc(Cl)c(Cl)c2)cc1
 : x, 1.3, 1.1, -34.7, -43.4, 6.5, x, x, x, -3.3
40	Cc1ccc(-c2nnc3ccc(SCC(=O)NCc4ccco4)nn23)cc1
 : -2.7, 0.5, x, x, x, x, -2.1%, -9.8, u, -0.9

Some of the entries above in a different format:
| cpd | SMILES | Calb FLC | A1 inh | AF4-AF9 inh | Ecoli rRNA inh | Ecoli rRNA inh OD600 | Ecoli rRNA inh RFP | Vif TR-FRET | T cruzi repl | RanGTP-Imp inh | Beta cell apopt |
| --- | --- | --- | --- | --- | --- | --- | --- | --- | --- | --- | --- |
| 34 | O=C(/C=C/c1c(F)cccc1Cl)c1ccc(F)cc1 | -18.3 | 0.2 | x | x | x | x | -4.3% | -6.5 | -4.7 | -6.1 |
| 35 | COc1ccc(-c2cnn3cc(-c4cccc(Cl)c4)cnc23)cc1 | 2.1 | 0.3 | -2.3 | 5.6 | 4.3 | -2.2 | -1.2% | 4.6 | 0.1 | -4.3 |
| 36 | O=C(COC(=O)c1ccc([N+](=O)[O-])o1)NCc1ccccc1 | x | -0.5 | 3.2 | 0.1 | 6.9 | -0.2 | 13.1% | x | x | -6.9 |

Going on with the list:
Every second line gives: Calb FLC, A1 inh, AF4-AF9 inh, Ecoli rRNA inh, Ecoli rRNA inh OD600, Ecoli rRNA inh RFP, Vif TR-FRET, T cruzi repl, RanGTP-Imp inh, Beta cell apopt
41	COc1ccc(CN2CCN(c3ccccn3)CC2)c(OC)c1
 : -14.8, 0.1, x, x, x, x, -5.4%, -12.4, -1.3, -1.0
42	O=C(CCN1C(=O)C2C3C=CC(C4CC34)C2C1=O)Oc1cccc2cccnc12 (centres undefined)
 : -1.6, -0.5, x, x, x, x, -0.1%, 25.7, 3.7, -11.0
43	CCN1C(=O)N[C@@H](c2cccc(C(F)(F)F)c2)[C@@H](C(=O)OC)[C@H]1C
 : 3.0, -0.4, 0.4, 2.6, 8.3, 6.4, x, -4.7, 1.5, 2.3
44	CCN(CC)C(=O)Cn1cc(S(=O)(=O)CC(=O)Nc2ccc3c(c2)OCCO3)c2ccccc21
 : u, 1.2, 6.0, -0.1, -2.4, -0.7, 4.3%, -1.7, 7.4, -4.5
45	O=C(Nc1ncc(Cc2ccccc2)s1)C1=NCCN1
 : -17.4, 0.6, -0.3, 12.4, 6.9, -2.0, -3.0%, -4.0, 2.5, -4.9
46	O=C(NC1CCCCC1)c1ccc2c(=O)n(CC3CCCO3)c(=O)[nH]c2c1 (centres undefined)
 : -3.2, 1.3, x, x, x, x, -1.6%, -3.6, 4.1, x
47	CCOc1cc(/C=N/NC(=O)CNc2cccc(C)c2)ccc1OC(=O)c1ccccc1
 : 1.6, 1.5, x, -0.6, 2.9, 1.2, -2.1%, 9.8, -3.4, 7.3
48	CCOc1ccccc1Nc1cc(C)nc2nc(C)nn12
 : 0.9, 0.7, -1.8, -0.5, -2.4, -2.9, 23.8%, -7.7, 2.4, -1.8

Screening results as filed in PubChem BioAssay.
